# miR-21 FLuc: raises the signal of a miR-21 reporter | HeLa miR-21 FLuc reporter, luciferase, 48 h | Potency, µM (doses to about 38.3 µM), without a hit: top-dose reporter change, positive = more light | 340,000 tested, under 10 active | AID 2288; active = well fitted rising curve with a large enough effect; inconclusive = small, poorly fitted or top-dose-only effect; inactive = no such curve, though single readings can be large or run the other way;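 also: % of control where 0% means no effect; miR-21 action dims this reporter so a rising signal means less miR-21 action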
#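 Compounds were titrated across several concentrations (up to approximately 40 uM) and incubated 48 hours with HeLa miR-21-FLuc reporter cells (miR-21 target sequence downstream of FLuc, endogenous miR-21). Readout was firefly luciferase luminescence after lytic detection reagent.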
# Rango-impB inh: prevents formation of the Rango-importin beta complex; Q14974; Rango CFP/YFP FRET sensor + importin beta, 45 min; Potency, µM (top dose mostly 92.2 µM), for inactives: at the top dose inhibition of complex formation; 340,000 tested, 0.031% active; AID 540263; active = rising FRET ratio curve, often small or poorly fitted; inconclusive = mostly compound fluorescence or quenching in the first reads; inactive = flat curves in all reads;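 also: potency is read from the fitted curve at half-maximal effect; 0% = DMSO wells and 100% = buffer wells lacking importin beta; nearly all actives have a fitted effect of over 15% in size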
#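 FRET biosensor (snurportin 1 IBB flanked by EYFP and cerulean), 50 nM, with compound 5 min, then 0.125 microM importin beta in PBS, 1 mM DTT, 0.02% Tween-20, 0.1% BSA. CFP/YFP ratio read after 45 min at room temperature; pre-read flags interference.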
# Rango release inh: prevents RanGTP from dissociating the Rango-importin beta complex; O95149+P62826; Biochemical FRET Rango-importin beta, RanGTP-induced dissociation; Potency, µM (titrated, usually from 46.1 µM), for the others: at the top dose activity change, negative = inhibition; 340,000 tested, 0.071% active; active means falling FRET ratio curve, often poorly fitted, with flat reads before Ran was added; inconclusive means other falling curves, or compound fluorescence or quenching; inactive means flat or rising ratio curve;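 also: potency is read from the fitted curve at half-maximal effect; % of control where 0% means no effect; nearly all actives have a fitted effect of over 45% in size; -100% = wells without RanGTP and RCC1; the record marks most hits as doubtful in a second field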
#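 Recombinant Rango FRET biosensor (EYFP–snurportin 1 IBB–cerulean CFP10) at 0.1 uM premixed with 0.25 uM importin beta in PBS, 1 mM DTT, 0.02% Tween-20, 0.1% BSA. Compound added 5 min; RanGTP-RCC1 (0.6 uM Ran, 2 mM GTP, 0.2 uM RCC1) then triggers release, read at 45 min.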
# GLA inh pH 4.5: alpha-galactosidase A (human) inhibition, pH 4.5 | activity change, negative = inhibition, % at 105 µM | 230,000 tested, under 10 active | purified enzyme, 4-MU-alpha-Gal fluorescence, pH 4.5 | P06280; inconclusive = small, poorly fitted or top-dose-only inhibition, or a rising curve; inactive = flat fitted curve, though single readings scatter; no compound was filed as active;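 also: 0% = full activity with enzyme and -100% = basal without enzyme; dose as in the result columns while the protocol names 77 µM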
# Target sequence (P06280 whole entry, looked up): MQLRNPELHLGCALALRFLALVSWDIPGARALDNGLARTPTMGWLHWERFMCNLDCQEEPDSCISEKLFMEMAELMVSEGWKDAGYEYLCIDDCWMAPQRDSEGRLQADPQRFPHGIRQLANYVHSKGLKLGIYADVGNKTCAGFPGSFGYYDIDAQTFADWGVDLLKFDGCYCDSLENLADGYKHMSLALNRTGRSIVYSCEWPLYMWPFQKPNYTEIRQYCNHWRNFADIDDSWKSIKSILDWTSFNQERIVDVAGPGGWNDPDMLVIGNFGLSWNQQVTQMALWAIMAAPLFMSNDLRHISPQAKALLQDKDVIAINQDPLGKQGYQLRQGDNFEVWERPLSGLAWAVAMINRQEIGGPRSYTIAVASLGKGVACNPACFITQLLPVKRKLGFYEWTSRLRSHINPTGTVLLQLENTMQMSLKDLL
# An asterisk follows results filed as active; ? = inconclusive; / = not tested or not shown; & = joins results of further samples. Some of the compounds tested (hit frequency here may not be typical).
[1] O=C(c1ccco1)N1CCN(C(=O)C2CC(c3ccc(Cl)cc3)=NO2)CC1 (configuration not stated)
[2] COc1ccc2c(c1)[C@H]1[C@H](CO2)[C@H](c2ccccc2)[C@]2(C)C(=O)Nc3ccc(C)cc3C(=O)N12
[3] c1ccc(Cn2c(Nn3cnnc3)nc3ccccc32)cc1
[4] Cc1cc(C)c(C(=O)Nc2ccc(Br)c(C(F)(F)F)c2)c(C)c1
[5] COc1nc(-c2ccccc2)c2cc(C)ccc2n1
[6] COc1ccccc1C(=O)OC1CCCN(C)C1 (configuration not stated)
compound no.	1	2	3	4	5	6
miR-21 FLuc	4.9%	/	-1.0%	9.9%	-0.7%	-1.7%
Rango-impB inh	?	-0.3%	-1.1%	-4.2%	-5.4%	2.1%
Rango release inh	-9.1%	1.9%	-5.0%	0.6%	1.8%	22.4%
GLA inh pH 4.5	-11.6	/	-8.8	-6.7	/	/

[7] CCCC(=O)n1nc(-c2cccnc2)nc1NCc1cccs1
[8] Cc1c(NS(=O)(=O)c2ccc(N)cc2)c(=O)n(-c2ccccc2)n1C
[9] O=C(O)c1cn(-c2ccc(F)cc2)c2cc(Cl)c(F)cc2c1=O
[10] COc1ccc(CCCC(=O)Nc2ccccc2F)cc1
[11] O=C(Cn1nnc2ccccc21)c1cccc([N+](=O)[O-])c1
[12] CCCCc1ccc(-c2ccc(Br)cc2O)nc1
compound no.	7	8	9	10	11	12
miR-21 FLuc	-17.0%	3.6%	0.3%	-49.9%	-12.8%	-57.4%
Rango-impB inh	-8.4%	-2.7%	3.0%	-2.7%	0.4%	-3.5%
Rango release inh	18.2%	1.8%	-17.4%	-6.4%	-13.6%	-5.2%
GLA inh pH 4.5	-0.7	/	/	-3.1	-5.5	4.4

[13] COCCNC(=O)CSC1=N/C(=C/c2ccc(Cl)c(Cl)c2)C(=O)N1c1ccccc1F
[14] Cc1ccc(S(=O)(=O)CCC(=O)NCc2ccc(Cl)cc2)cc1
[15] O=C(C1CCC(C(=O)N2CCCCC2)CC1)N1CCCCC1 (configuration not stated)
[16] N#Cc1nc(-c2ccc(F)cc2)oc1NCc1cccc2c1OCO2
[17] O=C(Nc1ccccc1)c1cccc(N2CCCC2=O)c1
[18] CC1CC(C)CN(c2nc3c(c(=O)[nH]c(=O)n3C)n2CCCSc2nc3ccccc3s2)C1 (configuration not stated)
compound no.	13	14	15	16	17	18
miR-21 FLuc	-16.4%	-2.9%	-2.1%	-31.0%	-35.1%	/
Rango-impB inh	0.1%	-1.2%	0.7%	-1.6%	-1.1%	0.4%
Rango release inh	-5.8%	2.7%	19.3%	1.6%	5.9%	17.2%
GLA inh pH 4.5	3.9	-14.1	2.5	7.5	1.9	/

[19] CCOc1ccc(CN2CCN(Cc3cccn3-c3ncccn3)CC2CCO)cc1 (configuration not stated)
[20] O=C(Nc1ccc(O)cc1)/C(=C/c1ccco1)NC(=O)c1ccccc1
[21] Cc1cc(C)n(-c2ccc(Cl)c(C(=O)O)c2)n1
[22] O=C(NC(=O)c1cnccc1C(F)(F)F)Nc1ccccc1
[23] CC(=O)CC(c1ccccc1)S(=O)(=O)c1ccc([N+](=O)[O-])cc1 (configuration not stated)
[24] CCOC(=O)C1CCN(C(=O)Nc2cc(Cl)cc(Cl)c2)CC1
compound no.	19	20	21	22	23	24
miR-21 FLuc	1.8%	1.6%	-44.9%	-7.5%	0.8%	-0.9%
Rango-impB inh	-0.9%	4.4%	1.3%	-3.3%	2.0%	-3.9%
Rango release inh	0.9%	-0.3%	-9.0%	0.8%	-20.7%	0.2%
GLA inh pH 4.5	0.4	-3.0	-0.3	-13.5	/	0.2

[25] COc1cc(Nc2cc(C)nc3ncnn23)cc(OC)c1
[26] Cc1ccc(NC(=O)c2cc(N3C(=O)CCC3=O)ccc2N2CCCCC2)cc1
[27] CCCCCCCOC(=O)c1nc(Cl)c(Cl)c(N)c1Cl
[28] CCNC(=O)/C(C#N)=C/c1c(N2CCN(c3ccccc3)CC2)nc2ccccn2c1=O
[29] O=C(O)c1cc(-c2ccc(O)cc2)on1
[30] O=C(NC1CCCCC1)C1CCC(=O)N(C2CC2)C1 (configuration not stated)
compound no.	25	26	27	28	29	30
miR-21 FLuc	-6.3%	-1.0%	-3.8%	-29.6%	1.4%	-2.1%
Rango-impB inh	-0.9%	7.6%	4.6%	?	?	3.8%
Rango release inh	6.7%	9.6%	0.1%	?	?	4.5%
GLA inh pH 4.5	7.3	5.2	-6.1	/	4.2	/

[31] O/N=C/c1nc2cc(Cl)ccc2o1
[32] COc1cccc(OC)c1C(=O)N1CCOCC1
[33] CCOc1ccc(C(=O)Nc2ccc(N3CCN(C)CC3)cc2)cc1[N+](=O)[O-]
[34] CCCN(CC(=O)Nc1ccccc1OC)Cc1c(O)ccc2ccccc12
[35] CCCOc1ccc(/C(O)=C2/C(=O)C(=O)N(CCCn3ccnc3)C2c2cccnc2)cc1 (configuration not stated)
[36] COc1ccccc1CNS(=O)(=O)c1ccc2c(c1)N(C(C)=O)CC(C)S2 (configuration not stated)
compound no.	31	32	33	34	35	36
miR-21 FLuc	-8.7%	-3.2%	-16.9%	4.0%	-0.2%	8.1%
Rango-impB inh	0.1%	4.1%	-1.6%	-0.3%	1.9%	4.1%
Rango release inh	7.0%	-3.5%	-0.8%	-1.8%	3.1%	16.1%
GLA inh pH 4.5	-1.4	2.2	-11.9	/	0.7	/

[37] COc1cccc(-c2nnc(SCC(=O)N3CCOCC3)o2)c1
[38] CC1(C(=O)O)C=CC2(CCCCC2)N1C(=O)c1ccccc1 (configuration not stated)
[39] CC1CCN(CC(O)Cn2c3ccccc3c3ccccc32)CC1 (configuration not stated)
[40] COc1ccc(S(=O)(=O)N2CCN(c3ccccc3OC)CC2)cc1C(=O)N1CCCCC1
[41] COc1ccc(N2CCN(c3ncnc4c3nnn4Cc3ccccc3Cl)CC2)cc1
[42] COc1ccc(S(=O)(=O)Nc2c(C(=O)O)[nH]c3ccc(OC)cc23)c(OC)c1
compound no.	37	38	39	40	41	42
miR-21 FLuc	-34.0%	-5.0%	-1.0%	12.0%	-10.4%	-0.6%
Rango-impB inh	7.9%	0.0%	0.8%	?	4.9%	-3.0%
Rango release inh	-0.9%	2.9%	-9.9%	-12.3%	3.8%	10.0%
GLA inh pH 4.5	3.0	2.8	/	/	5.9	/

[43] CC(C)C(=O)NC(=S)/C=C1/N(C)c2ccccc2C1(C)C
[44] CCCCn1c(N)c(N(CCOC)C(=O)c2ccc(S(=O)(=O)N3CCC(C)CC3)cc2)c(=O)[nH]c1=O
[45] CN(N)C(=S)Nc1ccc(F)cc1
[46] CCn1cc(C(=O)N[C@@H](C)C(=O)NCCCN2CCOCC2)c(=O)c2cc3c(cc21)OCO3
[47] C=CCNC(=O)C1CC(=O)N(c2ccc(OCC(=O)NCc3ccccc3)cc2)C1 (configuration not stated)
[48] Cc1nn(-c2ccc(N3CCOCC3)nn2)c(C)c1CCC(=O)NCc1ccccc1F
compound no.	43	44	45	46	47	48
miR-21 FLuc	3.4%	/	-0.1%	-0.1%	-3.0%	-8.8%&1.8%
Rango-impB inh	-6.0%	-1.5%	?	0.4%	-0.9%	-2.4%
Rango release inh	0.2%	?	-1.8%	2.0%	-4.4%	-3.9%
GLA inh pH 4.5	-9.4	/	-26.7	/	-0.2	/

[49] Cc1nsc2nc3c(F)c(F)c(F)c(F)c3cc12
[50] COc1ccc(C(=O)N/C(=C\c2ccco2)C(=O)NCCN2CCOCC2)cc1
[51] CC(=O)Nc1ccc(NC(=O)CSc2nnc3ccc(-c4cccnc4)nn23)cc1
[52] Cc1ccc(-n2nnnc2Sc2nc([N+](=O)[O-])nn2C)c(C)c1
[53] CN(C)c1cccc(C(=O)N2CCCC(C(=O)c3cc(F)ccc3F)C2)c1 (configuration not stated)
[54] Cc1cc(=O)oc2cc(OC(C(=O)O)c3ccccc3)ccc12 (configuration not stated)
compound no.	49	50	51	52	53	54
miR-21 FLuc	1.9%	-1.9%	/	/	-8.4%	-0.4%
Rango-impB inh	0.7%	-4.2%	?	7.3%	-0.5%	6.0%
Rango release inh	-14.6%	-17.2%	1.1%	-4.2%	3.3%	-17.7%
GLA inh pH 4.5	/	/	/	/	-0.4	/

[55] COc1cc(/C=C/C(=O)O)cc(S(=O)(=O)NNC(=O)c2cc(C)oc2C)c1OC
[56] O=C(CN(CC1CCCO1)C(=O)CCC(=O)Nc1ccccn1)NCc1ccccc1 (configuration not stated)
[57] CCc1ccc(CN(C(=O)c2cccs2)C2CCS(=O)(=O)C2)cc1 (configuration not stated)
[58] Cc1ccc(O)c(NC(=S)NC(=O)c2ccc(-c3ccc(Cl)cc3)o2)c1
[59] O=C(COC(=O)COc1cccc2ccccc12)NCC(F)(F)F
[60] Nc1ccccc1Nc1nc2ccccc2[nH]1
compound no.	55	56	57	58	59	60
miR-21 FLuc	/	0.2%	0.2%	/	-1.4%	3.1%
Rango-impB inh	1.8%	0.4%	1.1%	0.0%	-0.7%	-1.9%
Rango release inh	3.9%	0.5%	2.5%	11.3%	-8.2%	-4.8%
GLA inh pH 4.5	/	-14.3	/	/	6.7	/

[61] O=C(Nc1cc([N+](=O)[O-])ccc1F)c1cccs1
[62] Cc1ccccc1NC(=S)NC(NC(=O)c1ccco1)C(Cl)(Cl)Cl (configuration not stated)
[63] COc1ccc(-n2c(O)c(C=Nc3ccccc3)c3ccccc3c2=O)cc1
[64] CCSc1nnc(NC(=O)CSc2nnc(Cc3cccn3C)n2-c2ccc(F)cc2)s1
[65] Cc1cnccc1CNC(=O)C1CCC(=O)N(Cc2ccc(Cl)cc2)C1 (configuration not stated)
[66] COc1ccc(Cl)cc1N(C)C(=O)CCc1nc(-c2ccc(C)cc2)no1
[67] COc1ccc(NC(=O)C(c2ccc(OC)cc2)N(Cc2ccco2)C(=O)CC2NC(=O)NC2=O)cc1 (configuration not stated)
[68] COc1ccccc1C(=O)OCC(=O)Nc1ccccc1OC(F)F
compound no.	61	62	63	64	65	66	67	68
miR-21 FLuc	8.2%	0.8%	1.5%	-0.3%	2.7%	8.2%	0.6%	-0.5%
Rango-impB inh	-0.3%	-0.6%	-2.5%	-1.3%	3.6%	4.9%	0.2%	2.0%
Rango release inh	-1.3%	1.2%	0.8%	1.7%	25.4%	-6.1%	-1.9%	3.3%
GLA inh pH 4.5	-4.0	4.8	5.7	-0.5	/	-17.2	-3.2	0.8
